CHT allo act: allosteric activators of human choline transporter CHT; CHT-expressing cells, membrane potential dye, choline EC20; active compounds read high; LV-AA mutant CHT in HEK293 cells; B-score at 10 µM; 310,000 compounds, 0.49% hits; AID 488977;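 active means initial fluorescence not abnormally high and integrated response B-score, plate-corrected, over 3 SD above library mean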
Target sequence (Q9GZV3 whole entry, looked up): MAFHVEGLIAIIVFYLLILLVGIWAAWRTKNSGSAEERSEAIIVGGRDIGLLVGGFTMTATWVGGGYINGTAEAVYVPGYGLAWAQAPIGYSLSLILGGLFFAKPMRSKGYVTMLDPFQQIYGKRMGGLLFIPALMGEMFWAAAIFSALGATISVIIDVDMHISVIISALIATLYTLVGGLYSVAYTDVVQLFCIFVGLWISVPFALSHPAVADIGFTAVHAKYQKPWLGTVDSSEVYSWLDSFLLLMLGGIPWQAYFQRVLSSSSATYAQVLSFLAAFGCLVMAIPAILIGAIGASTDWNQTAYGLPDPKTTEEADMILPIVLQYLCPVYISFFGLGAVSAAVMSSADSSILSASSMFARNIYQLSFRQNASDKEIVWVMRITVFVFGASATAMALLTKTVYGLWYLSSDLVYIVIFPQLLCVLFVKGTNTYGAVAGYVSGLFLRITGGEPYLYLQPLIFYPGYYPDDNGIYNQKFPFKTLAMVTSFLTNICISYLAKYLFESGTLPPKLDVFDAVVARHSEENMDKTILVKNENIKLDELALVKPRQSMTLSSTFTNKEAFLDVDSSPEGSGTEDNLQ
Calls only; i = inactive. An excerpt; most or all hits stand in other tables.

SMILES | CHT allo act
Cc1cc(C)c(C2C(C#N)=C(N)Oc3n[nH]c(C)c32)cc1CN1CCCC1 (centres undefined) | i
Cc1noc(C)c1C(=O)Nc1sc(C)c(C)c1C#N | i
CC(=O)Nc1ccc(NC(=O)C(=O)c2cn(CC(=O)N3CCCCC3)c3ccccc23)cc1 | i
COCc1cc(C)nc(SCc2ccc(F)cc2)c1C#N | i
COc1ccc(CCNC(=O)c2ccncc2)cc1OC | i
Cc1ccc(-n2c(CSc3nc(C)cc(C)n3)n[nH]c2=S)cc1 | i
CCNS(=O)(=O)c1cc(S(C)(=O)=O)ccc1Cl | i
CCCOc1ccc(-c2nc(C#N)c(N3CCN(C)CC3)o2)cc1 | i
CC(/C=N/NC(=O)Cc1cccn1C)=C\c1ccco1 | i
COc1cc2nc(CN(C)Cc3ccc(C(C)(C)C)cc3)[nH]c(=O)c2cc1OC | i
Fc1ccc(-c2ccc(-c3nn4c(-c5ccco5)nnc4s3)o2)cc1 | i
CN1CCN(c2ccc(NC(=S)NC(=O)/C=C/c3ccco3)cc2)CC1 | i
CCNS(=O)(=O)c1ccc2c3c(cccc13)C(=O)N2 | i
CC(C)N1CCC(N2CCN(C3CCCC3)CC2CCO)CC1 (centres undefined) | i
CC1CN(C(=O)CCc2cc(C(C)(C)C)c(O)c(C(C)(C)C)c2)CC(C)O1 (centres undefined) | i
Cc1ccc(N(C(=O)CCC(=O)Nc2cc(C)on2)C(C(=O)NC2CCCC2)c2ccccc2)cc1 (centres undefined) | i
O=C(c1cc([N+](=O)[O-])ccc1N1CCN(S(=O)(=O)c2ccc(Cl)c(Cl)c2)CC1)N1CCOCC1 | i
O=C1c2cccnc2C(=O)N1Cc1ccc(S(=O)(=O)NCc2ccco2)s1 | i
N#CCCN/N=C(/Cc1nc2ccccc2[nH]1)c1cccc(Cl)c1 | i
CCOc1ccccc1NC(=O)c1cc(SC)ccc1Cl | i
COc1ccccc1/C=C(\NC(=O)c1ccc(OC)c(OC)c1)C(=O)Nc1cccc([N+](=O)[O-])c1 | i
CC1=NNC(=O)C1CC(=O)N/N=C/c1sccc1C (centres undefined) | i
CCOC(=O)C1Nc2c(F)cc(C)cc2C2c3ccccc3CC12 (centres undefined) | i
CCOC(=O)c1sc(NC(=O)COc2ncnc3ccccc23)c(C(=O)OCC)c1C | i
Cc1ccc(NC(=O)CC(=O)c2ccc([N+](=O)[O-])cc2)cc1S(=O)(=O)Nc1cccc(Cl)c1 | i
O=C(COC(=O)c1cc([N+](=O)[O-])ccc1NCc1ccccc1)NC1CCCCC1 | i
CCN(CC)c1nc2ccccc2nc1C(C#N)C(=O)NCCc1ccccc1 (centres undefined) | i
CCC(CO)NCCNC(CC)CO (centres undefined) | i
Cc1cccc(-n2nc3c(c2NC(=O)C(C)C)CS(=O)(=O)C3)c1C | i
CCc1ccc(NC(=O)CS(=O)CC(=O)N2CCN(c3ccccc3F)CC2)cc1 (centres undefined) | i
CC(=O)NC(=S)Nc1ccc2oc(=O)ccc2c1 | i
COc1cc2c(cc1OC)CN(CC(=O)Nc1ccccc1C(=O)NCc1ccccc1)CC2 | i
O=c1cc(-c2ccccc2)[nH]c2cc(Cl)ccc12 | i
N#Cc1c(-c2ccc(Cl)cc2)c(C#N)c(=O)n(N)c1N | i
O=C(Nc1cccnc1)C1CCN(S(=O)(=O)c2cccc3nonc23)CC1 | i
Cc1nc(N2CCN(S(=O)(=O)c3cccc4nonc34)CC2)c2c3c(sc2n1)CCCC3 | i
COc1cccc(CNC(=O)CC2C(=O)NCCN2Cc2ccoc2)c1OC (centres undefined) | i
CN(c1cccc(NC(=O)CN(c2cccc(Cl)c2)S(=O)(=O)c2ccccc2)c1)S(C)(=O)=O | i
O=C(O)COCC(=O)Nc1ccc2c(c1)ncn2CCc1ccccc1 | i
COc1ccccc1C(=O)COC(=O)COc1cccc2c1OC(C)(C)C2 | i
O=[N+]([O-])c1cc2c(cc1/C=N/NS(=O)(=O)c1ccc(Br)cc1)OCO2 | i
COc1ccc(CNC(=O)CCSCc2ccccc2Cl)c(OC)c1 | i
CCNC(=S)Nc1cc(Cl)ccc1Oc1ccccc1 | i
Cc1ccccc1OCCn1cc(C(=O)O)c2ccccc21 | i
COc1cccc(CN(C)C(=O)c2cc(S(=O)(=O)NCc3ccccc3)ccc2C)c1OC | i
C[C@H](O)[C@@]1(O)CC[C@H]2[C@@H]3CC[C@@H]4C[C@H](O)CC[C@]4(C)[C@H]3CC[C@@]21C | i
Brc1ccc(/C=N/Nc2ccccc2)cc1 | i
Brc1ccc(-c2nc3ncccn3c2Nc2ccc3c(c2)OCCO3)o1 | i
CC(C)(C)[C@H]1C=C(C(=O)O)O[C@@H](OCCCCO)C1 | i
C=CCn1c(COc2cccc3ccc(C)nc23)nnc1SCC(=O)O | i
Cc1cc(C(=O)N2CCN(Cc3ccccc3)CC2)on1 | i
CC(C)OCCCN1CN(S(=O)(=O)c2ccccc2)c2nc3ccccc3nc21 | i
O=C(NC1CCCCC1)C1CN(S(=O)(=O)c2ccccc2)CCN1S(=O)(=O)c1ccccc1 (centres undefined) | i
Cc1cc(C)n(CCN(C)C(=O)c2cc(COc3c(F)cccc3F)on2)n1 | i
O=C(Nc1nc2ccccc2n1CCN1CCCC1)c1ccc(Cl)cc1 | i
Cc1ccc(/C=N/NC(=O)c2ccncc2)s1 | i
C=CCN1CN=C(NS(=O)(=O)c2ccc(NC(C)=O)cc2)NC1 | i
COc1cc(C(=O)O)cc(Br)c1OC1CCCC1 | i
COc1ccnc(N=CNOCc2ccc(F)cc2Cl)c1C#N | i
Cc1cccc(S(=O)(=O)Nc2cccc3c2C(=O)c2ccccc2-3)c1 | i

(further entries)
SMILES | CHT allo act
COC(=O)c1ccccc1S(=O)(=O)C(C)(C)C | i
COc1cc(NS(=O)(=O)c2ccc(NC(=O)c3ccc([N+](=O)[O-])cc3)cc2)ncn1 | i
CCc1cc(C(N)=O)c(NC(=O)c2ccc(OC)cc2)s1 | i
O=C(Nc1ccc2c(c1)OCCO2)C1CC(c2ccccc2Cl)=NO1 (centres undefined) | i
O=C(COc1ccccc1F)NNC(=O)c1cccc(-n2cccc2)c1 | i
Cc1ccnc(NC(=O)CCC(=O)N(CC(=O)NCc2ccccc2)Cc2ccc(F)cc2)c1 | i
CCN(CC)S(=O)(=O)c1ccc(N2CCOCC2)c(NC(=O)CC2OC(=O)c3ccccc32)c1 (centres undefined) | i
CCOc1ccc2c(c1)/C(=N/N1C(=O)c3ccccc3C1=O)C(=O)N2 | i
COc1ccc(C)c2sc(NC(=O)c3cccc(N4C(=O)CCC4=O)c3)nc12 | i
Cc1noc(C)c1S(=O)(=O)Nc1ccc(C(C)C)cc1 | i
CCN(CC(=O)Nc1c(F)cccc1F)C(=O)C1CCC1 | i
CN(C)C(=O)CN1CCN(c2nc3nonc3nc2N2CCCCC2)CC1 | i
COc1ccc(C(=O)NCC(C)NC(=O)c2ccc(OC)c(Br)c2)cc1Br (centres undefined) | i
CCC(NC(=O)c1ccccc1NC(=O)c1ccccc1)C(=O)O (centres undefined) | i
CCCNS(=O)(=O)c1ccc(-n2cnnn2)c(OC)c1 | i

In a second layout: results already given
| molecule | CHT allo act |
| --- | --- |
| Cc1ccc(/C=N/NC(=O)c2ccncc2)s1 | i |
| C=CCN1CN=C(NS(=O)(=O)c2ccc(NC(C)=O)cc2)NC1 | i |
| COc1cc(C(=O)O)cc(Br)c1OC1CCCC1 | i |
| COc1ccnc(N=CNOCc2ccc(F)cc2Cl)c1C#N | i |
| Cc1cccc(S(=O)(=O)Nc2cccc3c2C(=O)c2ccccc2-3)c1 | i |
| COC(=O)c1ccccc1S(=O)(=O)C(C)(C)C | i |
| COc1cc(NS(=O)(=O)c2ccc(NC(=O)c3ccc([N+](=O)[O-])cc3)cc2)ncn1 | i |
| CCc1cc(C(N)=O)c(NC(=O)c2ccc(OC)cc2)s1 | i |
| O=C(Nc1ccc2c(c1)OCCO2)C1CC(c2ccccc2Cl)=NO1 (centres undefined) | i |
| O=C(COc1ccccc1F)NNC(=O)c1cccc(-n2cccc2)c1 | i |
| Cc1ccnc(NC(=O)CCC(=O)N(CC(=O)NCc2ccccc2)Cc2ccc(F)cc2)c1 | i |
| CCN(CC)S(=O)(=O)c1ccc(N2CCOCC2)c(NC(=O)CC2OC(=O)c3ccccc32)c1 (centres undefined) | i |
| CCOc1ccc2c(c1)/C(=N/N1C(=O)c3ccccc3C1=O)C(=O)N2 | i |
| COc1ccc(C)c2sc(NC(=O)c3cccc(N4C(=O)CCC4=O)c3)nc12 | i |
| Cc1noc(C)c1S(=O)(=O)Nc1ccc(C(C)C)cc1 | i |
| CCN(CC(=O)Nc1c(F)cccc1F)C(=O)C1CCC1 | i |
| CN(C)C(=O)CN1CCN(c2nc3nonc3nc2N2CCCCC2)CC1 | i |
| COc1ccc(C(=O)NCC(C)NC(=O)c2ccc(OC)c(Br)c2)cc1Br (centres undefined) | i |
| CCC(NC(=O)c1ccccc1NC(=O)c1ccccc1)C(=O)O (centres undefined) | i |
| CCCNS(=O)(=O)c1ccc(-n2cnnn2)c(OC)c1 | i |

The listing continues:
SMILES | CHT allo act
CCCCNC(=O)C1CCN(S(=O)(=O)c2cnc[nH]2)CC1 | i
COc1cc(NC(=O)COC(=O)c2ccccc2SCC(=O)N2CCCC2)cc(OC)c1 | i
NC(=O)c1ccccc1NC(=O)/C=C/c1ccc(Cl)cc1 | i
O=C(O)c1c(Cl)c(Cl)c(Cl)c(Cl)c1C(=O)N1CCCC1 | i
COCCn1c(C)cc(C(=O)CSc2nc(C)nc3sc4c(c23)CCC4)c1C | i
O=C(CSc1ncccn1)NCc1ccccc1Cl | i
Cc1c(S(=O)(=O)NC2CCCCCC2)c(=O)n(C)c(=O)n1C | i
Cc1nc(COc2ccccc2Cl)sc1-c1ccnc(N)n1 | i
Cn1nnnc1SCC(=O)Nc1ccccc1C(N)=O | i
O=C(CSc1nncs1)NCCNC(=O)CSc1nncs1 | i
CN1CCN(c2ccccc2NC(=O)Cc2ccc(Cl)cc2)CC1 | i
Cc1cccc(NC(=O)/C(C#N)=C/c2cn(CC(=O)NCc3ccco3)c3ccccc23)c1C | i
O=C(CN1C(=O)c2ccccc2S1(=O)=O)N1CCc2ccccc21 | i
O=C(NCc1cccs1)C1CC1 | i
c1ccc2c(NCCCN3CCOCC3)c3ccccc3nc2c1 | i
COc1ccc(N2CCN(C(=O)CCc3ccc(S(=O)(=O)NC(C)C)cc3)CC2)cc1 | i
CC(=O)CCSc1ncnc2sc(-c3ccccc3)cc12 | i
COc1cccc(CNC(=S)Nc2cc(C)ccc2C)c1 | i
O=C(NCC1CCCO1)c1ccc(COc2ccc(F)cc2)o1 (centres undefined) | i
CC(C)n1c(NCc2ccc(Cl)cc2)nc2ccccc21 | i
Clc1ccc(C2=CSC3=Nc4cccc5cccc(c45)N23)cc1 | i
O=C(ONC1=NCCCCC1)c1c(F)cccc1F | i
COCCNC(=O)Cn1c(=O)n(Cc2ccco2)c(=O)c2ccccc21 | i
CCn1c2ccccc2c2cc(NC(=O)COC(=O)c3ccc(O)cc3)ccc21 | i
O=C(Cc1noc2ccccc12)Nc1ccccn1 | i
CCOC(=O)c1[nH]c2ccc(OC)cc2c1C | i
CCCc1nc(SCC(=O)NC2CC2)c2c(C)c(C)sc2n1 | i
O=C(NCC1(c2ccccc2)CCCC1)c1ccc(Br)o1 | i
CCOCCCNC(=O)C(NC(=O)Cc1c[nH]c2ccccc12)c1ccc(OC)cc1 (centres undefined) | i
O=C(/C=C/c1cccs1)N1CCCCC1 | i
CCc1cccc2c1NC1(CCCC1)CC2C (centres undefined) | i
Cc1cc(NC(=O)c2ccco2)c(=O)n(Cc2c(F)cccc2Cl)c1 | i
Cn1c(N)c(C(=O)COC(=O)c2cc(-c3ccccc3)nc3ccccc23)c(=O)n(C)c1=O | i
O=C(CSc1nccn1-c1ccccc1)c1ccc(Cl)cc1 | i
Cn1c(=O)c2c(nc(NC3CCCCC3)n2Cc2ccccc2)n(C)c1=O | i
CC(C)(C)c1ccc(OC(=O)Cn2c(C(F)(F)F)nc3ccccc32)cc1 | i
CCOc1cc(C(=O)OCC(=O)Nc2ccc(SC(F)F)cc2)cc(OCC)c1OCC | i
CC(=O)c1ccc(O)c(CC=C(C)C)c1O | i
Nc1ccccc1C#Cc1ccccc1 | i
COc1cc(-c2csc(CCn3nc(C)cc3C)n2)cc(OC)c1OC | i
CC(C)CNC(=O)CC(NCC(C)C)C(=O)O (centres undefined) | i
CN1CCN(C(=O)c2ccc(F)c(F)c2)CC1 | i
Cn1c(=O)c2c(nc(NCc3ccco3)n2CC(O)COc2ccccc2)n(C)c1=O (centres undefined) | i
O=C(NC1CCS(=O)(=O)C1)C1C2CC3CC(C2)CC1C3 (centres undefined) | i
O=C(c1ccco1)[C@@H]1[C@@H]2C(=O)N(c3ccc(F)cc3)C(=O)[C@@H]2C2c3ccccc3C=CN21 (some centres undefined) | i
Cc1ccc(CC2C(=O)N(c3cc(Cl)ccn3)C(=O)C2C)cc1 (centres undefined) | i
CCc1nnc(NC(=O)C2CCC(CNc3c(N4CCCCC4)c(=O)c3=O)CC2)s1 (centres undefined) | i
Cc1cccc(C)c1OCc1cc(C(=O)N2CCC(c3ccccc3)CC2)no1 | i
CC(C)(C)NC(=O)C(=O)N/N=C/c1ccc(Br)cc1 | i
Cc1ccc(-n2c([S-])c(C(=O)Nc3ccc(OC(F)F)cc3)[n+]3ccc(C(=O)NCCO)cc23)cc1C | i
CC1CCCCN1S(=O)(=O)c1ccc(S(=O)(=O)N(CC(=O)Nc2ccccc2)Cc2cccs2)cc1 (centres undefined) | i
Cc1ccc(CNC(=O)C2CCC(CNS(=O)(=O)c3cccc4cccnc34)CC2)cc1 (centres undefined) | i
CN1C(=O)CSC1=Nc1cccc(Cl)c1 | i
COC(=O)CSc1nnc([C@H](Cc2ccccc2)NC(=O)OC(C)(C)C)o1 | i
COc1nc(-c2ccccc2)ccc1-c1noc(C)n1 | i
CCn1c(C)nc2cc(OC)ccc21 | i
NS(=O)(=O)c1cc(C(=O)Nc2ccc3c(c2)OCCCO3)ccc1Cl | i
COc1ccccc1C(=O)COC(=O)/C(=C/c1ccccc1)NC(C)=O | i
O=S(=O)(Nc1cccc(-n2cnnn2)c1)c1cnc(Cl)c(Cl)c1 | i
CCc1noc(C)c1C(=O)N1CCN(S(=O)(=O)c2ccc(Br)cc2)CC1 | i
Cc1noc(NS(=O)(=O)c2ccc(NC(=O)C(F)(F)F)cc2)c1C | i
O=C(c1cccc(Cl)c1)N1CCN(C(=O)c2ccco2)CC1 | i
O=C(Nc1ccccc1)c1ccc(Br)o1 | i
